CSC inhib = blocks cancer stem cells. cancer stem cell-like cells viability, luminescence. AID 2717. 300,000 tested, 1.1% active. inhibition, % at 7.5 µM;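 active = mean at 75% or more and at least half the replicates too; inconclusive = mean and replicates disagree; tested in HMLE shEcad cells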;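 also: 0% = median of negative and 100% = median of positive control wells; the first replicate is given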
eIF4H inh = inhibitors of RNA binding by human eIF4H; eIF4H fluorescence polarization binding assay; 290,000 tested, 0.94% active; Q15056; AID 2012; inhibition, % at 35 µM;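 active = 50% or more with normal probe brightness, or confirmed in later tests; inconclusive = above 50% with abnormal brightness, or retests that disagree; inactive = below 50% or failed in later tests; about a fifth of its hits are not listed in these tables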;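 also: calls also rest on retests at 20 µM and on dose response follow-up; 0% = protein and probe with vehicle and 100% = probe without protein; strong numbers were not always called active; many hits fall short of the cut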
UUG fidelity = yeast start codon fidelity modulation | S. cerevisiae UUG-firefly luciferase reporter, luminescence/redox ratio | activity score, % at 18.7 µM | 350,000 tested, 0.13% active;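 active = replicate mean at a twofold rise or more, about +100% in these data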;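 also: firefly luciferase made from a UUG start codon reports start codon fidelity; reporter light over untreated wells divided by growth signal over untreated wells; some hits fall short of that in this replicate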
MT1-MMP act inh = inhibitors of human MT1-MMP activation; P50281; HT1080 RFP-PRO-GFP cells, GFP/RFP ratio fluorescence, overnight; percent of plate control window, DMSO zero; GFP/RFP ratio change, % at 20 µM; 360,000 tested, 0.061% active;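 active = GFP/RFP ratio change of at least 30% with cell ATP level not reduced by more than half and red fluorescence within 50% of control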; also: strong numbers were not always called active
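Test system: HT1080 cells expressing an RFP-PRO-GFP fluorescent reporter construct / Compound dosing: single-point 20 µM compound, 1% DMSO / Schedule: cells overnight before dosing, compound overnight, 37 °C, 5% CO2 / Evaluation: GFP/RFP fluorescence ratio / Control set: DMSO and RFP-L50D-GFP cell wells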
PABP polyA inh = PABP-poly(A) binding inhibition; P11940; PABP-poly(A) RNA binding, fluorescence polarization; inhibition, % at 35 µM; 290,000 tested, 1% active; AID 2014;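 active = 50% or more with normal probe brightness, or confirmed in later tests; inconclusive = above 50% with abnormal brightness, or retests that disagree; inactive = below 50% or failed in later tests; about a fifth of its hits are not listed in these tables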;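 also: calls also rest on retests at 20 µM and on dose response follow-up; controls were probe without protein and protein plus probe with vehicle; some compounds called inactive have numbers as strong as hits; many hits fall short of the cut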
Target sequence (P11940 whole entry, looked up): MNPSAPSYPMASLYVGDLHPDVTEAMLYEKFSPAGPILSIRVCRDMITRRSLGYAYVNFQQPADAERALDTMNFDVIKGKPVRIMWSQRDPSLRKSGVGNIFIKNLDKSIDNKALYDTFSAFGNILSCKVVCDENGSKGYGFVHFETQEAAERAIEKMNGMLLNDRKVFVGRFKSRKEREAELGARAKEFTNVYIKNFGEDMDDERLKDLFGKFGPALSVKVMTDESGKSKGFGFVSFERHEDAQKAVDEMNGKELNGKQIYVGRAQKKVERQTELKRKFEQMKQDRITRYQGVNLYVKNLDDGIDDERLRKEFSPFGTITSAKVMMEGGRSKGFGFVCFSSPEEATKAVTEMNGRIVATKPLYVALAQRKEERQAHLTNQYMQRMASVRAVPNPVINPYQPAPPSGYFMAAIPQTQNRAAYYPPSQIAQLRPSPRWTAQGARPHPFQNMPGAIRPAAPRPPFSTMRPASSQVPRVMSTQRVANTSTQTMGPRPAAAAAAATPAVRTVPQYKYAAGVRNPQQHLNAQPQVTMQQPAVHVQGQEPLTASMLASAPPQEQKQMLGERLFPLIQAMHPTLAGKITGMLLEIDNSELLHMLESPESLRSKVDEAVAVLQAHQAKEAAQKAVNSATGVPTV
Rce1 inhib = inhibitors of yeast Ras-converting enzyme. Q03530. yeast membranes, quenched prenylated peptide cleavage fluorescence. calls only. 290,000 tested, 0.27% active;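 active = fall in fluorescence gain of 50% or more versus controls, with final raw signal at or below 3038400; inconclusive = same 50% fall but final raw signal above 3038400; inactive = fall in fluorescence gain under 50%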;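 also: plate controls were neutral control wells for no effect and wells lacking membranes for full effect; tested at 10 µM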
Env fusion inh = inhibitors of HIV Env-mediated cell fusion; HeLa-JRFL Env/CEM21 cell fusion, luciferase; 360,000 tested, 1.1% active; inhibition, % at 12.3 µM;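 active = mean replicate inhibition score of at least 50 and every replicate individually at or above 50; inconclusive = only one of the two criteria met; inactive = mean below 50 and not all replicates reaching 50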;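 also: 0% = plate neutral controls and 100% = maraviroc near 300 nM; one replicate is shown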
eIF4H inh retest = recorded beside eIF4H inh, whose call it bears; inhibition, %; compound at 20 µM; confirmation average;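 mean of two retest wells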
PABP polyA inh retest = also measured in PABP polyA inh; calls as there; inhibition, %; compound at 20 µM; confirmation repeats;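 mean of two retest wells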
MT1-MMP act inh RFP = second read-out of MT1-MMP act inh, no call of its own (marks repeat the call); RFP signal change, %; measured here: RFP expression control read;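 0 = vehicle wells; hits needed this value within 50% of zero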
Numbers without * were called inactive; i = inactive; u = inconclusive; x = not tested or not shown. Only part of the results is shown; the hit share may differ from the screen's.

SMILES	CSC inhib	eIF4H inh	UUG fidelity	MT1-MMP act inh	MT1-MMP act inh RFP	PABP polyA inh	Rce1 inhib	Env fusion inh	others
COc1ccccc1CCNC(=O)CCSc1nc(-c2ccco2)cc(C(F)(F)F)n1	21	11	x	-9	-10	7	i	x
Oc1ccc(/C=N/n2c(COc3ccccc3)n[nH]c2=S)c(O)c1	x	8	-1	1	-4	18	i	3
COCC(=O)N(C)C1(c2nnnn2CCOC(=O)Nc2ccc(Cl)cc2)CCCCC1	-27	-8	x	0	1	-13	i	5
CC(=O)Nc1ccc(NC(=O)C(C)OC(=O)c2ccccc2NS(=O)(=O)c2cccs2)cc1 (stereo not given)	1	-9	24	7	2	-3	i	-4
COc1ccc(C(=O)NCCSCc2ccccc2Cl)cc1OC	-2	14	-16	4	1	4	i	-1
O=C(CC1C(=O)NCCN1Cc1ccccc1)NCCCOc1cccnc1 (stereo not given)	-5	15	4	0	2	7	i	1
CN(C)c1oc(COc2ccc(F)cc2)nc1C#N	-2	1	1	4	5	8	i	-11
COc1ccc(CC(=O)OCC(=O)Nc2ccc3c(c2)OCO3)cc1	-18	2	x	5	7	-10	i	11
CCN1CC=C2C(C#N)=C(N)C(C#N)(C#N)[C@H](c3cccc(OC)c3OC)[C@H]2C1	-3	122	x	-132	1	116	i	-34	eIF4H inh retest=8;PABP polyA inh retest=0
COc1ccc(CC(=O)N/N=C(\C)c2ccc(Br)s2)cc1	-6	x	-11	-1	1	x	i	-19
COC(=O)c1ccc(NC(=O)c2cccnc2)cc1	-16	2	1	2	2	2	i	11
Cc1[nH][nH]c(=O)c1C(c1cc2c(cc1Br)OCO2)c1c(C)[nH][nH]c1=O	-11	-6	x	-4	-3	2	i	-8
CC(=O)N(C)c1cccc([N+](=O)[O-])c1	-18	-4	x	4	7	-3	i	-6
CSc1ccc(-c2nc3cnccn3c2Nc2ccc3c(c2)OCO3)cc1	16	-3	-12	1	-7	-1	i	x
C#CCOCCOCCOCCNc1nc(N2CCN(C(=O)[C@H]([C@@H](C)CC)n3cc(CCCN=C(N)N)nn3)CC2)nc(N2CCN(C(=O)[C@H](C)n3cc(CCCN=C(N)N)nn3)CC2)n1	-3	30	x	x	x	9	i	x
Cc1ccc(S(=O)(=O)Nc2cc(=O)[nH]c(SCC(=O)Nc3cccc(C)c3)n2)cc1	48	-8	-8	1	3	-14	i	-14
COCCOC(=O)c1c(NC(=O)COC(=O)c2ccc(C)o2)sc(C(N)=O)c1C	-6	x	-3	-2	-1	x	x	x
COc1cccc(C(=O)N2CCC2(C)C(=O)O)c1 (stereo not given)	x	x	-15	4	7	x	x	17
COc1ccc(OC)c(S(=O)(=O)N2CCN(c3ccccc3)CC2)c1	25	-3	-15	0	0	7	i	-1
CCN(c1ccccc1)S(=O)(=O)c1nnc(NC(=O)C(C)(C)C)s1	4	12	-5	-2	2	11	i	-13

Continued, overlapping the part above by two compounds.
SMILES	CSC inhib	eIF4H inh	UUG fidelity	MT1-MMP act inh	MT1-MMP act inh RFP	PABP polyA inh	Rce1 inhib	Env fusion inh	others
COc1ccc(OC)c(S(=O)(=O)N2CCN(c3ccccc3)CC2)c1	25	-3	-15	0	0	7	i	-1
CCN(c1ccccc1)S(=O)(=O)c1nnc(NC(=O)C(C)(C)C)s1	4	12	-5	-2	2	11	i	-13
Cc1ccc(OCC(=O)NNC(=S)NC(=O)C(C)(C)C)c(Br)c1	15	12	-20	7	-2	3	i	7
c1ccc(-c2csc(Cc3nnc4n3CCCCC4)n2)cc1	-4	-3	-13	4	0	-3	i	19
CN(C)n1cccc1/C=C(\C#N)S(=O)(=O)c1cccc(Cl)c1	-10	-11	-20	0	-6	1	i	-2
COC(=O)c1ccc(/C=C/c2c(-c3ccc(OC)cc3)oc3ccc(N4CCOCC4)cc23)cc1	109*	-10	-17	2	-1	8	i	18
CCNC(=O)C1(C)CCN(C(=O)c2ccc3c(c2)OCO3)C1 (stereo not given)	x	x	-3	4	10	x	x	-20
Cc1cc(C)c2oc(C(=O)N3CCN(Cc4ccccc4)CC3)cc(=O)c2c1	-13	-7	-7	2	2	-1	i	10
COc1ccccc1C(=O)NCC(=O)NCCc1ccc(Cl)cc1	-6	-2	x	1	3	-4	i	-2
CCc1ccc([C@@H]2CC=C(C(=O)O)[C@H](c3cccc(Cl)c3)N2S(=O)(=O)c2ccc(C)cc2)cc1	-3	x	-8	-1	7	x	x	15
CCOc1ccc(C(C(=O)NC2CCCC2)N(C(=O)CNC(=O)c2ccco2)c2cccnc2)cc1 (stereo not given)	x	-2	-11	1	7	0	i	11
c1ccc(OCc2nnc3sc(C4COc5ccccc5O4)nn23)cc1 (stereo not given)	9	38	-37	1	-1	0	i	9
O=C(CSc1nnnn1-c1ccccc1F)Nc1nc2ccccc2s1	-1	-4	-2	12	6	-6	i	x
O=c1[nH]cccc1-c1nc2cc(Cl)ccc2n1Cc1ccccc1	-6	0	-19	0	0	1	i	-4
Cc1ccc(OCc2cc(C(=O)NCc3cc(F)ccc3C)no2)cn1	x	-2	2	3	-11	5	i	-10
COc1ccccc1NC(=S)NC(=O)c1c(-c2ccccc2Cl)noc1C	17	-2	-24	-6	-6	-6	i	28
Cc1ccc(-c2cn3c(=S)[nH]nc3s2)cc1	x	-18	x	-3	-3	5	i	-55
COc1cc(C(=O)OC2CCOC2=O)cc(Cl)c1OC (stereo not given)	x	-3	-17	13	12	-2	i	5
CCOC(=O)C1C(=O)CC(C)(O)C(C(=O)OCC)C1c1ccc(Br)cc1 (stereo not given)	3	-2	-1	-1	3	8	i	x
COc1ccc(CN2CCN(c3ncccn3)CC2)c(OC)c1	-9	-2	-8	-1	0	10	i	-61
COC(=O)[C@@]1(Cc2ccc(OC)cc2)[C@H]2c3cc(C(=O)N(C)C)n(C[C@H](O)CO)c3C[C@H]2CN1C(=O)c1ccccc1	-1	-8	x	x	x	0	x	46
CC(=O)Nc1ccc(CNc2nc(NCCN(C)C)nc3cc(-c4ccccc4)sc23)cc1	x	x	-10	3	3	x	x	-11
CCC(C(=O)NCc1ccco1)n1nc(C)c2c(C)n(-c3ccccc3)nc2c1=O (stereo not given)	-6	-9	-4	0	-1	-2	i	1
O=C1C(=O)N(CCS(=O)(=O)c2ccccc2)c2ccccc21	7	4	-12	2	7	-7	i	-6
CC1CC(C)CN(S(=O)(=O)c2ccc(C(=O)N3CCCC3)cc2)C1 (stereo not given)	10	2	-7	0	-4	-2	i	2
COc1ccc(C(NC(C)=O)c2nccc3cc(OC)c(OC)cc23)cc1OC (stereo not given)	x	-13	5	1	0	-13	i	4
O=C(CCN(NC(=O)c1ccccc1)C1=NS(=O)(=O)c2ccccc21)NC1CCCCC1	0	0	-4	0	5	-6	i	x
O=C(O)CN1C(=O)CNC1=O	16	1	-21	1	8	-2	i	-27
O=[N+]([O-])c1cc(-c2ccc(/C=N/c3nc4ccccn4c3-c3ccco3)o2)ccc1Cl	0	128	-6	2	9	120	i	-220	eIF4H inh retest=-1;PABP polyA inh retest=4
Cc1cccc(-c2cc(C(=O)NCc3ccccn3)c3ccccc3n2)c1	-1	-2	x	0	0	-12	i	-14
COc1cccc(/C=N/Nc2nc3ccccc3[nH]2)c1OC	1	4	x	6	-6	3	i	-45
O=C(COC(=O)CSc1nnc(-c2ccc(Cl)cc2)o1)Nc1cc(Cl)cc(Cl)c1	5	-6	x	-1	0	29	i	3
Cc1ccc(SCC2=NN(c3nc(C)cc(C)n3)C(=O)C2)cc1	17	11	x	5	3	u	i	5
CC(C)(C)NC(=O)CSc1nc2ccccc2n1-c1ccccc1	1	-8	-20	-11	-11	5	i	x
COCCN=C(NS(=O)(=O)c1cccs1)c1ccccc1Cl	-10	x	6	-1	1	x	x	x
Nc1ccc(S(=O)(=O)NNC(=O)C(=O)NNc2ccccc2)cc1	-6	2	-17	0	3	0	i	1
CCCCN(Cc1ccccc1)S(=O)(=O)c1ccc2[nH]c(=O)oc2c1	-18	-4	x	7	2	7	i	x
CC(=O)c1cc2c(cc1N/C(=N/S(=O)(=O)c1ccc(Br)cc1)c1ccccc1)OCO2	x	2	-28	-2	-5	5	i	0
COc1ccc(Cn2ccnc2SCC(=O)Nc2cccc(NC(C)=O)c2)cc1	x	-3	x	2	-1	1	i	-5
CN1CCN(C(=O)C2=C[C@H](c3coc4ccccc4c3=O)C[C@H](OCCCCO)O2)CC1	2	2	-12	-6	-1	-4	i	9
Cc1cc(N(C)Cc2ccccc2)nc2cc(O)ccc12	10	-5	1	-1	-1	-4	i	6
CC(=O)c1cccc(CN2CCCC(CCC(=O)NCc3ccccc3F)C2)c1 (stereo not given)	-5	-1	x	1	3	1	i	5
CCOC(=O)c1sc(=NC(=O)c2c(F)cccc2F)n(C)c1C	4	-4	-25	-2	0	0	i	-10
CS(=O)(=O)c1ccc(C(=O)NNC(=O)c2cc(-c3ccccc3)n[nH]2)cc1	1	x	8	1	0	x	x	x
Cn1cc(C(=O)Nc2ccc(F)c(Cl)c2)cn1	-11	4	x	-2	-3	-2	i	-70
Nc1nc(Nc2ccc(Cl)cc2Cl)nc(C(F)(F)F)n1	-9	-4	-20	-4	-5	-7	x	x
Brc1cc2c(cc1CSc1ncccn1)OCO2	-1	-12	-7	-3	-3	-9	i	-2
CCCN(C(=O)CSc1nnc(-c2ccoc2C)n1N)C1CCS(=O)(=O)C1 (stereo not given)	-16	-2	-11	-2	2	2	i	2
Cc1ccc(C(=O)N/N=C/c2cccc3ccccc23)cn1	0	x	-1	0	-1	x	i	5
C[C@@H](NC(=O)[C@@H]1Cc2ccccc2CN1)C(=O)NC1CCCC1	4	-6	-21	3	-2	21	i	-1
COc1ccc(Cl)cc1C(=O)NCCN(C)C	-7	-2	-19	0	3	0	i	-11
CN(C)S(=O)(=O)c1ccc(N2CCCC2)c(C(=O)NNC(=O)c2ccc(Br)cc2)c1	-6	x	11	6	7	x	i	-22

Next section.
SMILES	CSC inhib	eIF4H inh	UUG fidelity	MT1-MMP act inh	MT1-MMP act inh RFP	PABP polyA inh	Rce1 inhib	Env fusion inh	others
COCCNC(=O)c1cc2c(=O)n(C)c3ccccc3c2n1C	-7	8	-5	1	3	1	i	-32
NS(=O)(=O)c1ccc(CCNc2nc(CN3CCOCC3)nc3sc4c(c23)CCC4)cc1	-11	-1	x	6	-2	-1	i	x
CN(Cc1ccccc1)c1ncnc2ccc(Br)cc12	-7	3	-15	-17	-19	-7	i	x
Fc1ccc(Cn2nnc3ccccc32)cc1	-12	-8	-8	1	1	-3	i	x
NC(=O)c1sc2nc3c(c(-c4ccco4)c2c1N)CCCC3	-7	10	-14	-19	-11	12	i	57*
C=CCn1c(CSc2nc3ccccc3s2)nnc1SCC(=O)NCCN1CCOCC1	-18	-4	-9	8	-2	10	i	21
NC1=C([N+](=O)[O-])C(c2ccccc2)C2=C(CCCC2=O)O1 (stereo not given)	5	-4	x	0	3	14	i	2
CC(=O)NCc1ccc(-c2csc(N)n2)s1	-2	4	-6	3	3	14	i	-51

3 records picked at random from those above:
SMILES	CSC inhib	eIF4H inh	UUG fidelity	MT1-MMP act inh	MT1-MMP act inh RFP	PABP polyA inh	Rce1 inhib	Env fusion inh	others
CN(Cc1ccccc1)c1ncnc2ccc(Br)cc12	-7	3	-15	-17	-19	-7	i	x
Fc1ccc(Cn2nnc3ccccc32)cc1	-12	-8	-8	1	1	-3	i	x
C=CCn1c(CSc2nc3ccccc3s2)nnc1SCC(=O)NCCN1CCOCC1	-18	-4	-9	8	-2	10	i	21
